# KCNQ2 enhance – KCNQ2 (rat) channel potentiation; 310,000 compounds, 0.54% hits; CHO-K1 KCNQ2, FluxOR thallium flux fluorescence; stronger effect = higher value; O88943; B-score at 10 µM; AID 2239;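 active means fluorescence ratio B-score at least 3 SD of library B-scores, with initial fluorescence B-score within 3 SD, cut at about 5.3 in these data; same plate scores as AID 2156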;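 further: B-score of peak minus minimum over baseline fluorescence ratio after K+ and Tl+ stimulus; positive B-score means potentiation of KCNQ2 with more thallium influx and brighter signal; only the inactives scoring about 0 or higher are listed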
# Target sequence (O88943 whole entry, looked up): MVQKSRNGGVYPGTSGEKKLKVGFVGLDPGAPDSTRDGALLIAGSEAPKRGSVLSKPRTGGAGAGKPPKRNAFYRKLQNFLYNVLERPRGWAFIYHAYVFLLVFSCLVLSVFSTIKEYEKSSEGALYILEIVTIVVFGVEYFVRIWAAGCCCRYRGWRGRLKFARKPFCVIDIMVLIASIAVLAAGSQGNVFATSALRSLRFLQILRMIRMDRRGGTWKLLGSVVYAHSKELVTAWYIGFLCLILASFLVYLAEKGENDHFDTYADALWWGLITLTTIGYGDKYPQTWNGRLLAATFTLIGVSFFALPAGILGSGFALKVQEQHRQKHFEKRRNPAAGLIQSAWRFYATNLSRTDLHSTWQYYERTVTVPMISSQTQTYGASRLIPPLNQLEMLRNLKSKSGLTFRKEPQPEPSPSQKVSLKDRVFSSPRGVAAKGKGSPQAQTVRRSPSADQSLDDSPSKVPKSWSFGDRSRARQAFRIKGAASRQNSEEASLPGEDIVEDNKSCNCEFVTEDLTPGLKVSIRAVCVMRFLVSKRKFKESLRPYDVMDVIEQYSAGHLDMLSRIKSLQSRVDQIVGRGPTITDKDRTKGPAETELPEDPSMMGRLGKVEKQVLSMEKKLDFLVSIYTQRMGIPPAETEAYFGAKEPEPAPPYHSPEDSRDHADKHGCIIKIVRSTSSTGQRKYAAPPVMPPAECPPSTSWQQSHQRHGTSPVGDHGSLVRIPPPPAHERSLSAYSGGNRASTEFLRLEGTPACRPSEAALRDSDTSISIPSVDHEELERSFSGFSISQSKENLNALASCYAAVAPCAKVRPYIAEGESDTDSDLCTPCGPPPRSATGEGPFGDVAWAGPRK
# KCNQ2 enhance baseline – recorded beside KCNQ2 enhance, whose call it bears; B-score; compound at 10 µM; measured here: initial fluorescence intensity artifact check;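 brightness before thallium and not channel activity; 0 = typical well and far values either way flag optical interference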
# * hit, by the source's call. The list is partial; rates above refer to the full screens.
SMILES,KCNQ2 enhance,KCNQ2 enhance baseline
COc1ccccc1NC(=O)c1ccc(Br)c(S(=O)(=O)N2CCCC2)c1,0.82,-1.95
CN(C)c1ccc(CN2CCCCC2)cc1,1.42,0.03
CN(CC(=O)NCCc1ccccc1)Cc1ccco1,0.76,-0.92
CCN(Cc1ccccc1)C(=O)C1CCN(S(=O)(=O)c2ccc3c(c2)OCCO3)CC1,0.23,1.2
Cc1ccc(NC(=O)CSCC(=O)Nc2cc(C(F)(F)F)ccc2N2CCOCC2)cc1,2.49,0.14
COc1ccc(NC(=O)Cn2nnc(-c3ccc(CN4CCOCC4)cc3)n2)c(OC)c1,0.21,0.38
O=C(O)c1cccc(NS(=O)(=O)c2ccc3c4c(cccc24)C(=O)N3)c1,0.67,-0.37
Cc1ccc(CNc2nc(N)c([N+](=O)[O-])c(NCCO)n2)cc1,0.19,-2.6
Cc1cc(C)c2cc(CN(CC3CCCO3)C(=S)NCc3ccco3)c(=O)[nH]c2c1 (stereo unspecified),0.07,-0.69
Cc1cc(N2CC(C(=O)Nc3nccs3)CC2=O)ccc1C(C)C (stereo unspecified),0.03,-0.69
Cc1ccccc1C(=O)Nc1ccccc1C(=O)NC1CC1,1.36,0.03
Cc1oc2ccc(O)cc2c1C(=O)c1ccc(F)cc1,0.24,-0.8
COc1ccccc1N(CC(=O)NCc1ccccc1)C(=O)CCC(=O)Nc1ccccn1,0.89,-0.38
COc1ccc(CC(=O)OCC(=O)Nc2ccc(Br)cc2)cc1,0.32,-1
Cc1nc2c(C(=O)NCc3ccc(F)cc3)c[nH]n2c(=O)c1Cl,0.2,-0.58
COc1ccc(-c2[nH]ncc2CN(CCO)Cc2cccs2)c(F)c1,1.25,0.24
O=C(CSc1nc2[nH]ncc2c(=O)[nH]1)NCc1ccccc1Cl,1.74,-0.93
CC1(C)Cc2c(C#N)c(OCC(=O)c3ccccc3)nc(-c3ccoc3)c2CO1,1.03,-0.66
CCOC(=O)/C=c1\s/c(=C\c2ccc(C(=O)OC)cc2)c(=O)n1CC(=O)Nc1ccccc1,0.76,1.02
O=C(NC(Nc1ncccn1)C(=O)c1ccccc1)c1ccccc1 (stereo unspecified),0.06,-2.53
Cc1ccc(C)c(OCCCC(C)(C)C(=O)O)c1,0.06,-0.07
Cc1ccc(NC(=O)COC(=O)c2ccc3c(c2)C(=O)N(CCc2ccccc2)C3=O)c(C)c1,0.14,-0.73
CCOC(=O)c1nn(-c2ccccc2)c(=O)c(C#N)c1C,0.01,1.84
CCN(CC(=O)NCCc1ccccc1)S(=O)(=O)c1ccccc1,0.01,0.87
O=C(NCCc1csc(-c2cccnc2)n1)c1cccs1,0.08,-0.37
CCC(=O)Nc1ccc(C(=O)CSc2nnc(-c3cccnc3)o2)cc1,2.47,-0.95
COc1cccc(C(=O)O/N=C(\N)c2ccncc2)c1OC,0.44,-0.43
COc1cccc(NC(=O)CN(C)C(=O)c2cccc(S(=O)(=O)N3CCN(c4ccccc4)CC3)c2)c1,0.05,-2.16
Fc1ccc(COc2ccc(-c3nnco3)cc2)cc1,1.33,-0.63
CCc1noc(C)c1C(=O)Nc1nc(-c2ccc(Cl)cc2Cl)c(C)s1,0.37,0.76

# Arranged by number of heavy atoms (low to high): some entries from above.
SMILES,KCNQ2 enhance,KCNQ2 enhance baseline
Cc1ccc(C)c(OCCCC(C)(C)C(=O)O)c1,0.06,-0.07
O=C(NCCc1csc(-c2cccnc2)n1)c1cccs1,0.08,-0.37
COc1cccc(C(=O)O/N=C(\N)c2ccncc2)c1OC,0.44,-0.43
CCN(CC(=O)NCCc1ccccc1)S(=O)(=O)c1ccccc1,0.01,0.87
Cc1ccc(NC(=O)COC(=O)c2ccc3c(c2)C(=O)N(CCc2ccccc2)C3=O)c(C)c1,0.14,-0.73
COc1cccc(NC(=O)CN(C)C(=O)c2cccc(S(=O)(=O)N3CCN(c4ccccc4)CC3)c2)c1,0.05,-2.16

# More entries follow.
SMILES,KCNQ2 enhance,KCNQ2 enhance baseline
CCOc1ccc(Br)cc1/C(C)=N\NC1=NCCN1,0.7,1.36
O=C(COC(=O)c1cccc(N2C(=O)c3ccccc3C2=O)c1)Nc1ccccc1,0.12,-1.09
COc1ccc(Cn2nnc(C(=O)Nc3ccc(F)cc3)c2N)cc1,0.8,-2.55
COc1ccc(-c2[nH]ncc2CN(C)Cc2ccccn2)c(OC)c1,0.19,0.78
CCOc1ccc(NC(=O)NCCN2C(C)CCCC2C)cc1 (stereo unspecified),0.08,0.75
COC(=O)c1nc(NC(=O)c2ccc(C(C)(C)C)cc2)n[nH]1,2.01,-0.73
CCCn1nnnc1SCC(=O)NC1CCCC1,0.53,0.16
Nc1nonc1-n1nnc(C(=O)N/N=C/c2ccccc2)c1CN1CCc2ccccc21,0.42,-0.96
O=C(OC1CCOC1=O)c1cccc(S(=O)(=O)N2CCc3ccccc3C2)c1 (stereo unspecified),1.27,1.48
N#Cc1ccccc1NC(=O)c1ccccc1OCC(=O)NCc1ccco1,0.9,-0.12
Cc1ccc(-n2ncc(C#N)c2/N=C/N2CCCCCC2)cc1,0.14,0.43
Cc1noc(C)c1COc1ccc(C(=O)OC(C)C(=O)Nc2ccc(N3CCOCC3)cc2)cc1 (stereo unspecified),0.98,0.91
Cn1c(N)c(C(=O)COC(=O)CSc2ccccc2)c(=O)n(C)c1=O,0.02,0.49
CC(=O)Oc1c(S(=O)(=O)c2ccccc2)c(C)nn1C(C)(C)C,0.37,-0.39
Cc1cccc(C)c1NC(=O)NC1(C(=O)N2CCN3CCCC3C2)CCCCC1 (stereo unspecified),0.53,0.01
COC1C=CC(CNC(=O)c2cc3c(=O)n4cccc(C)c4nc3n2C)(OC)O1 (stereo unspecified),0.1,0.41
COc1cc(S(=O)(=O)NCc2ccc3c(c2)OCO3)ccc1Cl,1.25,-0.85
Cc1cc(C(=O)N/N=C\c2cc(C(C)(C)C)ccc2O)n[nH]1,1.04,-1.28
O=C(Nc1c(C(=O)O)[nH]c2ccccc12)c1cccc(C(F)(F)F)c1,0.18,-0.19
CCCSc1nc(N)nc(-c2cccs2)c1C#N,0.54,-2.72
Cc1ccc2oc(NC(=O)N3CCOCC3)cc(=O)c2c1,1.48,-0.33
COCCN(CCOC)c1nc(N)c2c(N)nc3c(c2c1C#N)CC(=O)N3Cc1ccc(Cl)cc1,1.64,0.24
CC(=O)c1cnc2nc(SCc3ccc(C)cc3)nn2c1C,0.28,-0.56
COc1ccc(/C=C2/C(=O)N(Cc3ccccc3)N=C2C)cc1,0.83,0
Cc1cc(C)nc(N/N=C/c2ccc(Cl)cc2)n1,1.51,0.15
COc1ccc(NS(=O)(=O)c2ccc(C)c(C(=O)N(C)CC(=O)Nc3cccc(OC)c3)c2)cc1,0.57,1.11
COc1ccc(C2C(C(=O)NC(C)C)c3ccccc3C(=O)N2C)cc1OC (stereo unspecified),2.79,-0.26
O=C(O)c1cc([N+](=O)[O-])ccc1NCc1ccccc1Cl,1.87,-1.69
COc1ccc(-n2cnc3scc(-c4ccc(OC)c(OC)c4)c3c2=O)cc1,1.03,0.84
CCOc1ccc(C(C(=O)NCCC(C)C)N(CCO)C(=O)c2snc(C(N)=O)c2N)cc1 (stereo unspecified),1.36,-0.82

# Reprinted from the part before: five compounds, then new ones.
SMILES,KCNQ2 enhance,KCNQ2 enhance baseline
COc1ccc(NS(=O)(=O)c2ccc(C)c(C(=O)N(C)CC(=O)Nc3cccc(OC)c3)c2)cc1,0.57,1.11
COc1ccc(C2C(C(=O)NC(C)C)c3ccccc3C(=O)N2C)cc1OC (stereo unspecified),2.79,-0.26
O=C(O)c1cc([N+](=O)[O-])ccc1NCc1ccccc1Cl,1.87,-1.69
COc1ccc(-n2cnc3scc(-c4ccc(OC)c(OC)c4)c3c2=O)cc1,1.03,0.84
CCOc1ccc(C(C(=O)NCCC(C)C)N(CCO)C(=O)c2snc(C(N)=O)c2N)cc1 (stereo unspecified),1.36,-0.82
O=C(Nc1ccc(S(=O)(=O)Nc2ncccn2)cc1)c1ccccc1Br,1.06,-0.97
Cn1cnnc1SCC(=O)N1CCC(Cc2ccccc2)CC1,0.93,-0.52
O=S(=O)(Nc1cccc2cn[nH]c12)c1ccc(F)cc1,1.74,1.73
Cn1c(=O)c2c(nc(SCC(=O)O)n2Cc2cccc(C(F)(F)F)c2)n(C)c1=O,0.22,-0.53
Cc1ccccc1-c1nc(CS(=O)(=O)CC(=O)NCCCN2CCCC2)c(C)o1,0.27,0.59
C[C@@H](CSc1ccccc1)CN1CC[C@H](O)CCC1=O,0.65,-0.62
CCCN(CCC)Cc1c(C(=O)N/N=C/c2ccsc2)nnn1-c1nonc1N,0.33,0.25
CC(C)NC(=O)C(C)n1cccc1C(=O)c1ccccc1 (stereo unspecified),0.2,-0.77
CC1CC(=O)N(C)c2ccc([N+](=O)[O-])cc2N1 (stereo unspecified),0.44,-1.07
COc1ccc(Sc2ccccc2CN(C)C)cc1OC,0.47,0.41
O=C(CCNS(=O)(=O)c1cccc2nsnc12)N1CCc2ccccc21,0.35,-0.23
O=[N+]([O-])c1ccc(N2CCN(C(=S)NC3CCCCC3)CC2)cc1,1.28,0.02
Cn1c(=O)c2cn3c(c2n(C)c1=O)C(c1ccccc1)CC(c1ccccc1)=N3 (stereo unspecified),0.03,-0.6
CN(NC1OC(=O)c2ccccc21)c1ccc(C(F)(F)F)cc1[N+](=O)[O-] (stereo unspecified),0.36,0.33
COc1ccc(-c2nnc(N3CCOCC3)c3ccccc23)cc1,0.05,-0.34
CC(=O)Nc1ccc(-c2csc(NC(=O)C3=COCCO3)n2)cc1,0.01,-1.93
Cc1ccccc1NC(=O)COC(=O)c1cc[n+]([O-])cc1,1.86,-0.04
Cc1ccc(/C=N/NC(=O)c2cccc([N+](=O)[O-])c2)o1,1.12,0.83
CC(=O)c1c(C)[nH]c(C(=O)COC(=O)CN(C)S(=O)(=O)c2ccc(Cl)cc2)c1C,1.63,0.21
CCOC(=O)N1CCN(S(=O)(=O)c2cc(Br)cc3c2N(C(=O)CC)CC3)CC1,0.25,1.02
CC(=O)Cc1nsc(NC(=O)c2cccc(F)c2)n1,0.57,1.59
COc1cccc(CNS(=O)(=O)c2ccc3c(c2)NC(=O)CS3)c1,0.06,0.42
CC(=O)c1c(C)[nH]c(C(=O)NCc2ccco2)c1C,1.01,1.13
CC(C)CCNC(=O)CSc1nnc(-c2ccc(S(=O)(=O)N3CCCC3)cc2)n1C,0.84,0.83
COc1ccccc1NC(=O)C(=O)N/N=C/c1cccs1,0.89,-1.07
CCc1ccc(-c2cnc3nc[nH]c(=O)c3n2)cc1,0.02,-0.05
COc1ccc(N2CCN(c3ccc(NC(=O)NN)cc3)CC2)cc1,1.77,-0.09
Brc1ccccc1OCCCCCN1CCCC1,0.94,0.51
O=C(c1ccco1)N1CCN(Cc2nnc(-c3ccccc3F)o2)CC1,0.61,1
COc1cccc(-c2c(NC(=O)c3ccco3)oc3ccc(Cl)cc3c2=O)c1,0.08,4.06
CCc1cccc2c(C=C(C#N)C#N)cn(CC(=O)N3CCCCCC3)c12,0.38,2.06
Cc1ccc(S(=O)(=O)/N=C(\CN2CCOCC2)N2CCOCC2)cc1,0.53,-0.47
O=C(NCc1ccco1)c1cnc2ccccn2c1=O,0.72,0.08
CSc1nc2ccc(N3C(=O)C4CCCCC4C3=O)cc2s1 (stereo unspecified),0.6,-0.25
CCOC(=O)C1CCN(C(=S)NC2CC3C=CC2C3)CC1 (stereo unspecified),1.95,0
Nc1nnnn1CC(=O)N/N=C/c1ccc(-c2cccc(Cl)c2)o1,2.24,-0.08
Cc1ccc2c(c1)C1CN(C)CCC1N2C(=O)COc1ccc(N(C)C(=O)c2ccccc2)cc1 (stereo unspecified),0.27,-0.07
CCCCCN(C(=O)NC(=O)Nc1ccc(C)cc1C)S(C)(=O)=O,1.63,-0.13
CCn1c(SCC(=O)N2CCCC2)nnc1-c1ccco1,0.68,0.57
O=C(O)c1ccccc1NCCO,0.56,-0.67
Cc1ccc2[nH]c(=O)c(C(c3nnnn3C(C)(C)C)N(Cc3ccco3)CC3CCCO3)cc2c1 (stereo unspecified),0.34,0.17
COC(=O)c1ccc(CN2CCN(CCCc3ccccc3)C(CCO)C2)cc1 (stereo unspecified),0.06,0.2
C=CCSc1nnc(NC(=O)CCNC(=O)c2ccco2)s1,0.56,-1.17
Cc1ccc(Sc2cc(C(=O)NCCN(C)C)c3ccccc3n2)cc1,1.15,0.8
CC(C)(C)NS(=O)(=O)c1ccc(CCC(=O)NCc2ccccn2)cc1,0.45,0.33
O=C(Nc1cccc(Cl)c1)N1CCOCC1,1.71,-2.22
COC(=O)CNS(=O)(=O)c1ccc(Cc2ccc(S(=O)(=O)NCC(=O)OC)cc2)cc1,1.48,0.09
O=C(Nc1ccc(O)cc1)c1ccc2c(c1)C(=O)N(Cc1cccnc1)C2=O,1.51,0.03
O=C(CSc1ncn[nH]1)Nc1ccccc1-c1ccccc1,0.65,1.03
COCCN(C(=O)CSc1nnc(Nc2ccc(C)cc2)s1)c1c(N)n(CC(C)C)c(=O)[nH]c1=O,1.37,-0.07

# Going on with the list:
SMILES,KCNQ2 enhance,KCNQ2 enhance baseline
COc1cccc(C(=O)NCC(=O)N/N=C/c2cccnc2)c1,0.2,-0.07
CC(=O)Nc1ccc(C(=O)NN2C(=O)NC3(CCCCC3)C2=O)cc1,0.48,2.1
Cc1ccc(/C(N)=N/OC(=O)c2cccc(F)c2)cc1,0.63,-0.04
O=C(Nc1ccccc1)c1ccc(S(=O)(=O)NCc2ccco2)cc1,0.2,-0.01
COc1ccc(-n2nc(C(=O)NCC(=O)NC3CCCCC3)c3ccccc3c2=O)c(OC)c1,0.63,-3.17
Cc1cc(CN2C(=O)c3ccccc3C2=O)no1,0.02,1.81
S=c1[nH]nc(Cc2cccc3ccccc23)o1,1.64,0.95
